Six1-Eya2 blk: qHTS Assay for Inhibitors of the Six1/Eya2 Interaction; Homeobox protein SIX1 (Homo sapiens) + Protein phosphatase EYA2 (Homo sapiens), …; AlphaScreen GST-Six1/His-Eya2 binding, biochemical; hits give low values; control for the full effect not named in the record; activity change, % (concentration not given with the values); hit rate 0.56% among 360,000; in the data active = activity change below about -65%; inconclusive = about -30% to -65%; inactive = above about -30%; further: on the % scale 0 is the no-effect control and ±100 the full control effect
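AlphaScreen with GST-Six1 and His-Eya2 (5X mix: 250 nM and 500 nM), glutathione donor and nickel acceptor beads; buffer 50 mM Tris pH 8.0, 300 mM NaCl, 1 mM TCEP; 1 h at 37 C in the dark.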
D2 agonist: Beta-Arrestin HTS for Positive Allosteric Modulators of the Human D2 Dopamine Receptor: Agonists; DiscoveRx PathHunter D2 beta-arrestin, luminescence, 90 min; 100% = 57 uM dopamine signal; activation, % (concentration not given with the values); hit rate 0.084% among 360,000; in the data active = activation above about 40%; inconclusive = about 15% to 40%; inactive = below about 15%; further: compound concentration not given in the record; the text of the record calls up to 30% inactive
Target sequence (P14416 whole entry, looked up): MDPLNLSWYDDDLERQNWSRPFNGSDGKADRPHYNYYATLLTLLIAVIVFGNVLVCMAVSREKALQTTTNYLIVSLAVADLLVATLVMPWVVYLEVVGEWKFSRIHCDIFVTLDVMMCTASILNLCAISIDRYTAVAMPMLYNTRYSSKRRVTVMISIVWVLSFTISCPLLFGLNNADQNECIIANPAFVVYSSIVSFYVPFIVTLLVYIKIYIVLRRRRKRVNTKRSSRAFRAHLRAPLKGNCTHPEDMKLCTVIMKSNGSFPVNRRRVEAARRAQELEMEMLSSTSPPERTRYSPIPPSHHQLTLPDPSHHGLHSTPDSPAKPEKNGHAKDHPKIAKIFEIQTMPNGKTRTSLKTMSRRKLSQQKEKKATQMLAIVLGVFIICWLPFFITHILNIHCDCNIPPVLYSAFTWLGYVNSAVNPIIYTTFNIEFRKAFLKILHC
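DiscoveRx PathHunter D2 beta-arrestin cells (2,100/well) attached overnight, then compound-stimulated 90 min at 37 C in HBSS/10 mM HEPES/0.1% Tween-20 buffer; beta-galactosidase complementation read by luminescence after 1 h at ambient temperature. Dopamine 57 uM final (EC100) as control.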
gsp antag: qHTS for Antagonists of gsp, the Etiologic Mutation Responsible for Fibrous Dysplasia/McCune-Albright Syndrome: qHTS | hit rate 0.4% among 340,000 | AID 624288, 2012 | gsp-mutant cells, cAMP HTRF, 30 min; control for the full effect not named in the record | Potency, µM (highest dose often 76.9 µM), without a hit: top-dose activity change, negative = inhibition, usual class: inhibitors; active = falling curve of any shape with a large fitted effect; inconclusive = falling curve, mostly with a smaller effect; inactive = flat or rising curve; cell line not stated here;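 further: intracellular cAMP measured with PDE inhibitor Ro 20-1724 present during compound exposure; potency means the concentration at half of the fitted maximal effect; on the % scale 0 is the no-effect control and ±100 the full control effect; nearly all actives have a fitted effect of over 65% in size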
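G418-selected cells were plated in DMEM/10% FBS for 16-24 h at 37C, then treated with compounds plus the PDE inhibitor […] (300 uM solution added) for 30 min at 37C. Intracellular cAMP was measured by HTRF after 30 min lysis at room temperature.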
D2 potentiator: Beta-Arrestin HTS for Positive Allosteric Modulators of the Human D2 Dopamine Receptor: Potentiators; D(2) dopamine receptor (Homo sapiens), P14416; potentiation, % (concentration not given with the values); hit rate 0.23% among 360,000; DiscoveRx D2 beta-arrestin cells, luminescence, 90 min; 100% = 57 uM dopamine signal; active = potentiation of 50% or more; inconclusive = 30% to 50%; inactive = 30% or less;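 further: compound concentration not given in the record; tested on top of an EC20 dose of dopamine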
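PathHunter beta-arrestin assay in DiscoveRx D2 cells. Compounds were added with an EC20 of dopamine (50 nM final) for 90 min at 37 deg C. Luminescence was read 1 h after detection reagent, with 57 uM dopamine as the EC100 control.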
gsp ag: qHTS for Agonist of gsp, the Etiologic Mutation Responsible for Fibrous Dysplasia/McCune-Albright Syndrome: qHTS. gsp mutant cells, cAMP HTRF, 30 min; control for the full effect not named in the record. Potency, µM (doses to about 76.9 µM), without a hit: at the top dose activation (cAMP increase), actives largely listed as activators. AID 624287, 2012. hit rate 0.13% among 340,000; active = well fitted activation curve with a large enough effect; inconclusive = small, poorly fitted or top-dose-only effect, or another doubt; inactive = no such curve, though single readings can be large or run the other way; cell line not stated here;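 further: phosphodiesterase inhibitor Ro 20-1724 added with compounds to block cAMP breakdown; potency means the concentration at half of the fitted maximal effect; nearly all actives have a fitted effect of over 60% in size; about a fifth of the inactives were tested at one dose only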
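Cells in DMEM/10% FBS with G418 were pretreated with compounds in DMSO plus […] (300 uM stock) for 30 min at 37C. cAMP was measured by HTRF (cAMP-d2 plus anti-cAMP antibody-K) after 30 min at room temperature.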
CtBP-E1A blk: qHTS Assay for Inhibitors of the CtBP/E1A Interaction. CtBP / adenovirus E1A interaction (AlphaScreen). AlphaScreen GST-E1A/His-CtBP binding, 1536-well; hits give low values; control for the full effect not named in the record. activity change, % (no concentration beside the values). hit rate 0.49% among 340,000; in the data active means activity change below about -65%; inconclusive means about -30% to -65%; inactive means above about -30%; further: on the % scale 0 is the no-effect control and ±100 the full control effect; compound concentration not given in the record
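Homogeneous bead-based format: GST-tagged E1A captured on glutathione donor beads, His-tagged CtBP on nickel acceptor beads; compounds precede bead addition by 2 h at 37 °C.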
* hit, by the source's call; ? = inconclusive; . = no result given; [ ] = dose if it differs, or a comment.

SMILES | Six1-Eya2 blk | D2 agonist | gsp antag | D2 potentiator | gsp ag | CtBP-E1A blk
Cc1cccc2sc(NC(=O)CN3C(=O)NC4(CCCC4)C3=O)nc12 | -2 | -1.7 | 2% | -10 | ? | 3
CC1CCCCN1CC(=O)c1c[nH]c2ccccc12 (stereo not drawn) | 0 | 4.3 | -22% | 1 | -24%[15.4 µM] | 0
O=C1NC[C@H](Cc2ccc(O)cc2)N(C[C@H]2CCCN2C[C@H](Cc2ccccc2)N2C[C@H](Cc3ccccc3)N(CCc3ccccc3)C(=O)C2=O)C1=O | -13 | -4.6 | . | -11 | . | -9
O=C(O)c1c2c(nc3ccc(S(=O)(=O)N4CCC(C(=O)N5CCCCC5)CC4)cc13)CCCC2 | -16 | -30 | 9% | 1 | 0% | 0
Cc1ccc(S(=O)(=O)N2CCN(C(=O)N3CCOCC3)CC2)cc1C | 13 | -0.1 | 10% | -2 | -2%[15.4 µM] | 9
Cc1cccc(NC(=S)NC2CC3CCCC(C2)N3CC(C)C)c1C (stereo not drawn) | -1 | -2.4 | 11% | -9 | -12% | 3
COCc1cc(=O)n2[nH]c(C)c(-c3ccc(Cl)cc3)c2n1 | 1 | -0.5 | . | -11 | 5% | 2
CC1(C)Cc2cccc(OCC(=O)N3CCN(S(=O)(=O)c4ccccc4)CC3)c2O1 | 4 | -1.6 | -16% | -8 | -12% | -10
O=C(/C=C/c1ccc(Cl)cc1Cl)NC(=S)Nc1ccc(CN2CCOCC2)cc1 | 7 | 1.5 | -11% | -20 | -35%[inhibitor] | -3
Cc1cc(C(=O)Nc2sc(C)c(C)c2C#N)no1 | -2 | 0.0 | 3% | -9 | -64%[inhibitor] | -2
C=C(C)CSc1nc2sc3c(c2c(=O)n1C1CCCCC1)CCN(C)C3 | -4 | -5.2 | -12% | -6 | ? | -4
COc1ccc(N2CCN(C(C)C(=O)Nc3nnc(C)s3)CC2)cc1 (stereo not drawn) | 10 | -1.3 | -5% | -9 | 9%[15.4 µM] | 9
COc1cccc(C(c2nnnn2C2CCCCC2)N2CCN(C/C=C/c3ccccc3)CC2)c1OC (stereo not drawn) | -21 | -5.1 | . | -15 | . | ?
CCOc1ncccc1C(=O)NCCc1ccc(S(N)(=O)=O)cc1 | -5 | 3.5 | 5% | -10 | 0% | 4
O=C(c1ccco1)N1CCN(Cc2ccc(Br)cc2)CC1 | -1 | 58* | 11% | ? | -21% | 2
Cc1cc(C)nc(SCc2nnc(SCC(=O)Nc3ccc(C)c(C)c3)o2)n1 | -3 | -2.8 | -17% | -1 | -9% | 0
Cn1cc(CC(=O)NCCN2CCOCC2)c2ccccc21 | 1 | 0.1 | -7% | -10 | -4% | .
Cc1ccc(S(=O)(=O)Nc2cccc(C(=O)N3CCOCC3)c2)cc1 | 11 | -2.4 | 10% | -3 | -6%[15.4 µM] | -1
C/C(CCC(C)C)=N\NC(=S)Nc1cc(S(=O)(=O)N2CCOCC2)ccc1N1CCOCC1 | -11 | -3.5 | 3% | -3 | -15%[15.4 µM] | -15
Cc1ccccc1C1CC(c2ccccc2)Nc2ncnn21 (stereo not drawn) | 4 | -0.1 | 1% | -1 | -44%[inhibitor] | 1

4 compounds picked at random from the list so far:
SMILES | Six1-Eya2 blk | D2 agonist | gsp antag | D2 potentiator | gsp ag | CtBP-E1A blk
O=C(O)c1c2c(nc3ccc(S(=O)(=O)N4CCC(C(=O)N5CCCCC5)CC4)cc13)CCCC2 | -16 | -30 | 9% | 1 | 0% | 0
Cn1cc(CC(=O)NCCN2CCOCC2)c2ccccc21 | 1 | 0.1 | -7% | -10 | -4% | .
COc1cccc(C(c2nnnn2C2CCCCC2)N2CCN(C/C=C/c3ccccc3)CC2)c1OC (stereo not drawn) | -21 | -5.1 | . | -15 | . | ?
COc1ccc(N2CCN(C(C)C(=O)Nc3nnc(C)s3)CC2)cc1 (stereo not drawn) | 10 | -1.3 | -5% | -9 | 9%[15.4 µM] | 9

Continuation:
SMILES | Six1-Eya2 blk | D2 agonist | gsp antag | D2 potentiator | gsp ag | CtBP-E1A blk
Cc1nonc1C(=O)N/N=C/c1ccc([N+](=O)[O-])o1 | -18 | 8.6 | 11% | 14 | 0% | -1
COc1ccccc1CN(C)C[C@@H]1OCc2cnnn2CCCC(=O)N([C@@H](C)CO)C[C@H]1C | -1 | -3.3 | . | . | -7% | 1
Cc1ccc(S(=O)(=O)N2CCc3ccccc3C2CN2C(=O)c3ccccc3C2=O)cc1 (stereo not drawn) | 2 | 2.0 | ? | 1 | -24% | -2
Cc1cc2c(cc1C)CSC(c1ccc3ccccc3c1O)SC2 | -3 | -2.1 | 4% | -1 | -7% | -6
COc1ccccc1C(CC(N)=O)c1ccco1 (stereo not drawn) | 5 | -2.1 | 1% | -4 | 21% | 3
CCOC(=O)c1ccc2[nH]c3c(c2c1)CCCC3NC=O (stereo not drawn) | -1 | -3.5 | -11% | -3 | 4% | -8
Cc1cnc(C(=O)OCC(=O)c2csc(N3CCCCC3)n2)cn1 | 3 | -2.4 | 15% | -1 | -11% | 6
COCCNc1nc(Oc2cccc(NC(C)=O)c2)c2sc(-c3ccccc3)cc2n1 | 4 | -1.7 | . | -6 | . | 5
COc1ccc(/C=N/NC(=O)c2ccc(Cl)cc2)cc1COC(C)=O | -1 | 1.8 | 1% | -21 | -27% | -9
C=C1CCN([C@@H](C)C(=O)OCc2cccc(C)c2)S(=O)(=O)c2ccccc21 | 7 | 3.7 | -5% | 1 | 2% | .
CCCCNc1nc(-c2ccccc2)c(C(=O)OCC)cc1C#N | 106 | -3.1 | -10% | -13 | -30%[inhibitor] | 132
COc1ccc(OC)c(-c2cc(C(=O)NCCCn3ccnc3)no2)c1 | -11 | -1.6 | 1% | -17 | ? | 13
CC1=CC(=O)N(c2cccc3c(N4C(=O)C=C(C)C4=O)cccc23)C1=O | 0 | -1.6 | -1% | -16 | -23% | -23
CSc1nsc(N/N=C/c2ccc3c(c2)OCO3)c1C#N | -3 | -2.6 | 3% | -1 | 25% | 9
O=C1NCC(O)=C1C=NCCO | 6 | -4.9 | -3% | 16 | 3% | 22
CCOC(=O)c1ccc(CN2C(=O)c3ccccc3S2(=O)=O)cc1 | 6 | -6.9 | 1% | 2 | -20% | 14
COc1ccc(NC(=O)Nc2cccs2)cc1Cl | -21 | 0.1 | -4% | -10 | -142%[inhibitor] | .
CCOC(=O)c1sc(NC(=O)c2ccc(S(=O)(=O)N3CCOCC3)cc2)cc1C | ? | 0.4 | 9% | -15 | 4% | ?
CC(C)CCOc1ccc(C(=O)NCCC(=O)N2CCOCC2)cc1 | 3 | -1.2 | 3% | -7 | -21% | 1
CCN1C(=O)/C(=C/N2CCc3ccccc32)SC1=S | 10 | -1.8 | 5% | -6 | -30%[inhibitor] | 4
CCNC(=S)N(CCc1c(C)[nH]c2ccccc12)Cc1cccnc1 | -4 | 4.3 | -22% | -10 | 3% | .
Cc1cc(NS(C)(=O)=O)c(=O)n(Cc2cccc(C(F)(F)F)c2)c1 | -5 | -4.5 | . | -19 | -85%[inhibitor] | -1
O=C1CN2CCC1C/C2=C\c1ccnc2c(Cl)cccc12 (stereo not drawn) | 0 | -3.1 | 2% | -27 | 4% | .
Oc1nc(-c2ccc(Br)cc2)n2ccncc12 | -5 | 2.7 | ? | 15 | -22% | -9
CCOc1ccc(S(=O)(=O)Nc2cccc(C(=O)N3CCN(c4cccc(OC)c4)CC3)c2)cc1 | -2 | ? | ? | -20 | -18%[15.4 µM] | -14
O=C(CSCCc1ccccn1)Nc1ccccn1 | -1 | 1.4 | 6% | 1 | -30% | 12
CCOC(=O)C1(Cc2ccc(OC)cc2)CCN(C(=O)[C@@H]2CCCN2C(C)=O)CC1 | 10 | -2.8 | 0% | 1 | 8% | 8
CCCN(C(=O)CN1C(=O)NC2(CCCCCC2)C1=O)C1CCS(=O)(=O)C1 (stereo not drawn) | 1 | 3.6 | 0% | -5 | 3% | 5
Clc1ccc(CSc2nnc(-c3ccccn3)n2Cc2ccco2)cc1Cl | 1 | -5.6 | . | -3 | . | 2
COc1cc(C(=O)Nc2cc(-c3cn4cccnc4n3)ccc2C)cc(OC)c1OC | -15 | -2.9 | 1% | -10 | 1%[15.4 µM] | -4
O=C(CN1CCOCC1)Nc1c(Cl)cc(Cl)cc1Cl | 3 | 0.3 | 3% | 0 | -13% | -2
N/C(Cc1ccc(Cl)c(Cl)c1)=N\OC(=O)c1ccc(Br)o1 | -2 | ? | ? | 60* | 10%[15.4 µM] | 3
CCOC(=O)C1C(C)=C(Nc2ccc(OC)cc2)C(=O)N1c1ccc(OC)cc1 (stereo not drawn) | -2 | -1.0 | 17% | -2 | 9% | 3
O=C(NC1CCN(S(=O)(=O)c2ccc(F)cc2)CC1)C1CCCCC1 | 10 | -4.5 | 15% | -5 | 19% | -8
CC1=C(C(=O)Nc2cc(C)ccn2)C(c2ccc(C)cc2)C2=C(CCCC2=O)N1 (stereo not drawn) | 0 | -2.9 | -9% | 7 | -3% | -2
C=CCn1c(SC(C)CC)nc(O)cc1=O (stereo not drawn) | -4 | -5.3 | -9% | -36 | 0% | -1
CC(C)(C)NC(=O)CN(CCN1CCOCC1)C(=O)CNS(=O)(=O)c1ccccc1 | -1 | -3.2 | 17% | -5 | -2%[15.4 µM] | -9
COC(=O)[C@H](Cc1ccccc1)NC(=O)N1CCN(Cc2ccccc2)CC1 | 0 | -0.8 | 2% | -9 | -8% | -1
Cc1ccc(C(=O)C[n+]2cccc(C(N)=O)c2)cc1 | 0 | 4.9 | 12% | -8 | -3%[15.4 µM] | -8
O=C(CN1C(=O)NC2(CCCCCC2)C1=O)N1CCN(c2ccc(F)cc2)CC1 | 3 | -1.4 | -6% | -7 | -26% | .
O=C(NCCC1=CCCCC1)C1CC(=O)N(C2CCCCCC2)C1 (stereo not drawn) | 0 | -3.5 | 1% | -14 | -3% | 10
COc1ccccc1Cn1c(/C=C/c2ccccc2)nc2ccccc21 | 40 | -9.1 | -8% | -9 | 6% | 43
Cc1cnc(C(=O)OC(C)C(=O)Nc2ccc(Oc3ccccc3)cc2)cn1 (stereo not drawn) | -1 | 1.0 | 10% | 3 | -2% | 5
CCCCn1c(Cc2ccccc2)n[nH]c1=S | 8 | 3.4 | 5% | 2 | -15% | 3
COCCn1cnc2cc(C)c(C)cc21 | 8 | -7.5 | 11% | 4 | -5% | 2
CC(=O)c1cccc(NC(=O)c2ccc(NC(=O)CC3SC(N4CCCCC4)=NC3=O)cc2)c1 (stereo not drawn) | -17 | 0.7 | -4% | 1 | -73%[inhibitor] | -2

High-throughput results deposited in PubChem by National Center for Advancing Translational Sciences (NCATS).
